From PubChem
HCMV NEC inh: inhibitors of HCMV UL50-UL53 interaction, biochemical, HTRF; hit rate 0.15% among 190,000; inhibition, % (test concentration not listed); normalized percent inhibition; AID 1918969, 2023;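 active means both replicates at 50% or more, plus weaker picks with an unusually low signal ratio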;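 further: stock transfer was 100 nL into about 20 µL; 0% = negative control wells and 100% = wells with untagged competitor protein; inactives centre near -12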
Sa growth inh: S. aureus growth inhibition at 42 and 30 °C, primary screen, LtaS inhibitor project, RN4220, two temperatures. OD600, 20 h, 42 °C; stronger effect = lower value. AID 720641, 2013. hit rate 0.53% among 170,000. relative growth, % (concentration not given with the values);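 active means growth at 42 °C up to 50% and 20 or more points under that at 30 °C, or under 10% at both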;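 further: 300 nL library stock went into each well; scaled to the means of positive and negative controls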
GIV Gai3 FP: inhibitors of GIV peptide binding to Galpha-i3, primary screen, biochemical, fluorescence polarization, FITC-GIV GBA peptide, rat Galphai3; 90 min; stronger effect = lower value; scaled: aluminum fluoride 0%, vehicle 100%; AID 1224905, 2016; Guanine nucleotide-binding protein G(i) subunit alpha-3 (Rattus norvegicus), P08753; percent of control (FP), % (concentration not given with the values); hit rate 0.42% among 210,000;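 active means replicate mean at 85% of control or lower, very high polarization wells dropped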;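 further: wells of about 15 µL received 100 nL stock; the first replicate is given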
Target sequence (P08753 whole entry, looked up): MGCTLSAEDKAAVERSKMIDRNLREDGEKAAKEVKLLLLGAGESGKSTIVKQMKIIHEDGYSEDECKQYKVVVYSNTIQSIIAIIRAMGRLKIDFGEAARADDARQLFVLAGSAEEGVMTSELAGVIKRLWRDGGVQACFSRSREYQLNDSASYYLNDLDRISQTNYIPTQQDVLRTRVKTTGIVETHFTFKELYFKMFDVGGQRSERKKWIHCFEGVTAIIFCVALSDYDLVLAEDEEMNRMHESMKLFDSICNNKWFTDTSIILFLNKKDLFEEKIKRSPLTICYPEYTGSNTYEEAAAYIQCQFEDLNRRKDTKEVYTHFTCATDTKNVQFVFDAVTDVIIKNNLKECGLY
Sa growth inh second temp: second read-out of Sa growth inh, no call of its own (marks repeat the call); relative growth, %; measured here: growth at 30 °C;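 optical density after 20 h as mean of two plates; 100% = untreated growth and lower means inhibition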
Numbers without * were called inactive; . = no result given; & = joins results of further samples.

SMILES	HCMV NEC inh	Sa growth inh	Sa growth inh second temp	GIV Gai3 FP
CC1CC(=S)Nc2ccccc2S1 (stereo unspecified)	-13	104	94	100
COc1ccccc1N=C(NN)c1ccc2ccccc2n1	-33	107	54	103
Cc1ccccc1OCCN1CCNC1=S	-20	91	79	99
CC(C)c1ccc(S(=O)(=O)C2C(=O)N(C)C3(C)CC2c2ccccc2O3)cc1 (stereo unspecified)	.	91	85	105
CCc1cccc(C)c1NS(=O)(=O)c1ccc2c(c1)NC(=O)C(C)C(=O)N2 (stereo unspecified)	.	104	103	101
CC(=O)c1ccc(NS(=O)(=O)c2ccc(-n3cccn3)cc2)cc1	.	85	83	108
COc1ccc2nc(SCC(=O)NN3C(=O)NC4(CCCCC4)C3=O)[nH]c2c1	26	112	100	.
Cc1nc2ccn(Cc3cccnc3)c(=O)c2cc1C(=O)NCc1ccc(Br)cc1	-27	.	.	103
CCS(=O)(=O)Nc1ccc2c(c1)CCC(=O)N2C	-29	.	.	102
CC(C)c1cc(=O)n2c([nH]c3ccccc32)c1C#N	.	80	57	102
O=C(Nc1cccc(Cl)c1)C1=CC(=O)N2CCCN=C2S1	.	93	73	103
CCOC(=O)c1c(C=O)oc2c(C)cc(OC(=O)c3cc(OC)c(OC)c(OC)c3)c(Br)c12	-9	.	.	103
CCOC(=O)c1c(S(=O)(=O)N2CCC(C(=O)Nc3ccc(C)cc3C)CC2)c(C)n(C)c1C	.	102	87	102
N#Cc1c(-c2ccccc2)nc(SCC(=O)OC2CCCC2)[nH]c1=O	-4	100	103	102
COc1ccccc1C(=O)OCc1cc(=O)n2nc(C(C)C)sc2n1	.	96	91	102
Cc1nnc(NC(=O)CSc2nnc(COc3ccc4c(c3)CCCC4)n2C)s1	-8	96	86	105
Cc1cc(=O)n2nc(N3CCC(C(=O)NCCc4ccc(Cl)cc4)CC3)sc2n1	-7	.	.	106
Cc1ccc2c(c1)C(c1ccc(F)cc1)N(C(=O)c1ccc(OC(C)C)cc1)CC(=O)N2 (stereo unspecified)	3	87	75	107
Cc1oc(-c2ccccc2)[n+]([O-])c1C	16	96	99	106
COc1cc(NC(=O)c2cc(C3CC3)nc3c2c(C)nn3-c2ccccc2)cc(OC)c1	.	82	87	104
Cc1ccc(CNC(=O)COC(=O)c2ccccc2NCCO)cc1	-7	107	97	.
COc1ccccc1N1CC(C(=O)OC(C)C(=O)N2CCCc3ccccc32)CC1=O (stereo unspecified)	-2	103	100	.
Cc1[nH]c(C)c(S(=O)(=O)NC2CCCCCC2)c1C(=O)N1CCCC1	-12	94	87	101
COc1ccc(OC)c(S(=O)(=O)N2CCN=C2N2CCN(c3ccc(F)cc3)CC2)c1	-22	.	.	110
CCOc1ccc(-c2cc(NC(=O)c3ccc(C)cc3)c(C(=O)OC)s2)cc1	-10	103	89	103

Sorted by number of heavy atoms (falling): 7 of the compounds above
SMILES	HCMV NEC inh	Sa growth inh	Sa growth inh second temp	GIV Gai3 FP
CCOC(=O)c1c(C=O)oc2c(C)cc(OC(=O)c3cc(OC)c(OC)c(OC)c3)c(Br)c12	-9	.	.	103
COc1ccc(OC)c(S(=O)(=O)N2CCN=C2N2CCN(c3ccc(F)cc3)CC2)c1	-22	.	.	110
CCc1cccc(C)c1NS(=O)(=O)c1ccc2c(c1)NC(=O)C(C)C(=O)N2 (stereo unspecified)	.	104	103	101
N#Cc1c(-c2ccccc2)nc(SCC(=O)OC2CCCC2)[nH]c1=O	-4	100	103	102
CC(=O)c1ccc(NS(=O)(=O)c2ccc(-n3cccn3)cc2)cc1	.	85	83	108
COc1ccccc1N=C(NN)c1ccc2ccccc2n1	-33	107	54	103
CC(C)c1cc(=O)n2c([nH]c3ccccc32)c1C#N	.	80	57	102

(next part)
SMILES	HCMV NEC inh	Sa growth inh	Sa growth inh second temp	GIV Gai3 FP
COc1ccc2[nH]cc(CCNC(=O)Nc3cc(C)cc(C)c3)c2c1	8&-15	103	90	103&106
O=C(CN1c2ccccc2S(=O)(=O)c2ccccc21)N1CCCCC1	-15&16	111	92	102&109
CCOC(=O)c1ccc2ncc3c(-c4ccccc4)nn(-c4ccccc4)c3c2c1	.	88	96	103
N#Cc1ccc(NCC(=O)Nc2ccc(N3CCOCC3)cc2)cc1	-7	103	91	.
C=CCOc1ccc(/C=C2\Oc3ccc(C(=O)OC)cc3C2=O)cc1	.	115	73	105
CN1C(=O)c2ccc(NC(=O)c3ccc4ncsc4c3)cc2C1=O	-9	98	88	109
COc1ccc(OC)c2sc(N(Cc3cccnc3)C(C)=O)nc12	.	121	88	106
CCc1ccc(CNC(=O)c2cc3c(=O)n(Cc4cccnc4)ccc3nc2C)cc1	-16	.	.	102
CCOC(CCn1c(SCC(N)=O)nc2c(sc3ccccc32)c1=O)OCC	-21	100	95	101
COc1cc(CN(C(=O)COc2ccccc2)c2ccccn2)cc(OC)c1OC	-27	116	83	106
CCCn1c(CNC(C)=O)nc2ccccc21	-1	102	91	102
O=C(Nc1nnc(S(=O)(=O)N2CCc3ccccc32)s1)c1ccccc1	-15	121	69	103
NC(CC(=O)O)c1cccc(O)c1 (stereo unspecified)	.	95	97	102
Cc1ccc(C(=O)CSc2nccc(=O)[nH]2)cc1	5	118	104	.
CC(=O)OC1OCCOC1OC(C)=O (stereo unspecified)	-21	96	97	100
O=[N+]([O-])c1ccc2c(c1)S(=O)(=O)C=C2	-92&-22	.	.	104
COCC(C)N1CC(C(=O)Nc2nnc(CCc3ccccc3)s2)CC1=O (stereo unspecified)	-1	94	89	100
CC(NC(=O)c1ccc(C(C)(C)C)cc1)c1ccncc1 (stereo unspecified)	-5	102	97	109
N=c1c(C(N)=S)cnc2ccccn12	-11	76	80	.
CCCCN(C)C(=O)c1nc(-c2ccc(C)cc2)n2c1CCCCC2	.	94	88	103
COc1ccc(C(=O)c2cnc3ncccn23)cc1	-33	86	87	103
CN(C)c1ccc(NC(=S)NC2CCCCC2)cc1	-9	119	72	104
Nc1nc(SCc2ccccc2)ns1	-10	119	107	106
O=S(=O)(NCCN1CCCC1)c1cccc2cccnc12	-11	103	92	104
Cc1nnc(COC(=O)c2c3c(nc4ccccc24)CCC(C(C)(C)C)C3)o1 (stereo unspecified)	-22	91	60	.

Additional records:
SMILES	HCMV NEC inh	Sa growth inh	Sa growth inh second temp	GIV Gai3 FP
CCOCc1nnc(NS(=O)(=O)c2ccc(Cl)cc2)s1	5	96	71	100
Cc1sc2nc(CN3CCCCC3)nc(N)c2c1C	27	114	110	.
CCNc1ccc(C(=O)OCC)cc1NC(=O)Nc1ccc(F)cc1	-5	93	95	.
O=C(Nc1ccccc1)Nc1nccs1	-15	105	87	.
CC(C)NC(=O)C1CCN(c2ccc(F)cc2)C1=O (stereo unspecified)	9	.	.	104
O=c1ccc(-c2nc3c4c5c(sc4ncn3n2)CCCC5)n[nH]1	-21	109	94	104
CCOC(=O)c1ccc(C(=S)N2CCCC2)cc1	7	89	94	112
S=C(NCCN1CCOCC1)NNc1c(Cl)cc(Cl)cc1Cl	-27	92	87	.
CC(O)c1ccc2ccccc2c1 (stereo unspecified)	-34	90	90	106
Cc1nc2c(cnn2-c2ccccc2)c(=O)n1-c1ccccc1	1	110	76	98
CC(C)(C)C(=O)/C=C1\Nc2ccccc2SC1(O)CC(=O)C(C)(C)C (stereo unspecified)	-5	107	88	100
Cc1csc(NC(=O)CN2C(=O)C(C)(C)c3cc(S(=O)(=O)N4CCOCC4)ccc32)n1	-14	.	.	102
Nc1nc(CC(=O)NN=C2CCCCCC2)cs1	-21	108	107	103
Cc1ccc(NC(=O)COc2cc(-c3ccccc3)nc3ccccc23)cc1	-14	.	.	107
CC(=O)Nc1c(O)nc(SCC(=O)N2CCOCC2)[nH]c1=O	-4	109	92	.
COc1ccc(-c2nc(CSCC(=O)N3CCCC3)c(C)o2)cc1	-1	127	98	96
COCCOC(=O)C1=C(C)NC2=C(C(=O)CC(c3ccc(OC)c(OC)c3)C2)C1c1ccccc1F (stereo unspecified)	-24	.	.	100
Fc1ccc(COC(CN2CCCCC2)CN2CCCCC2)cc1	-23	106	82	107
COc1ccccc1CNS(=O)(=O)c1ccc2c(c1)NC(=O)CC(=O)N2	-43	112	86	105
Cc1nn2c(=O)cc(COc3ccc(/C=C(\C#N)C(=O)Nc4ccccc4)cc3Cl)nc2s1	-14	100	87	101
COC(=O)C1C(=O)c2cc(OC)c(OC)cc2C1c1ccccc1 (stereo unspecified)	6	88	90	.
Cc1ccc(C)c(N2CCN(S(=O)(=O)c3cc(C(=O)Nc4ccc(Oc5ccccc5)cc4)ccc3F)CC2)c1	.	97	98	107
COc1ccccc1-c1coc2cc(OCc3ccc(C)cc3)ccc2c1=O	.	101	101	104
Cc1cccc(Cn2c(=O)n(Cc3ccccc3)c(=O)c3sc4ccccc4c32)c1	-1	100	94	99
COc1ccccc1CNC(=O)c1ccc(CN2CC(=O)N3CCCCC3C2=O)cc1 (stereo unspecified)	.	102	87	110

(cont.)
SMILES	HCMV NEC inh	Sa growth inh	Sa growth inh second temp	GIV Gai3 FP
CCc1ccc(S(=O)(=O)NCc2cn3ccccc3n2)s1	.	119	96	102
CCc1c(C)sc2c1CCN(C(=O)Nc1ccccc1C(F)(F)F)C2c1ccccc1 (stereo unspecified)	.	95	79	98
O=c1[nH]c(O)c(C=NCc2ccc(Cl)cc2)c(=O)[nH]1	0	98	113	113
CCN(c1ccccc1)c1ncnc2c1cnn2-c1ccc(C)cc1C	.	90	50	107
CCOC(=O)C1=C(CSc2nnc(-c3ccc(OC)cc3)o2)NC(=O)NC1C (stereo unspecified)	-19	90	85	.
CC(=O)NCCSCc1c(F)cccc1Cl	-38	77	14	104
COc1ccc(OCCSc2nnc(CCNC(=O)c3ccc(OC)cc3)n2C)cc1	-2	111	97	102
CN(C)c1ccc(C(CNS(C)(=O)=O)N2CCc3ccccc3C2)cc1 (stereo unspecified)	-12	.	.	103
CC(C)N1C(=O)/C(=C/c2cccc(Br)c2)SC1=S	.	86	89	102
CNC(=O)C1CCC(Cn2c(=O)c3sccc3n(Cc3ccccc3)c2=O)CC1 (stereo unspecified)	.	83	87	99
O=C(NCC1CCCO1)c1c(NC(=O)c2nn(-c3cccc(Cl)c3)ccc2=O)sc2c1CCC2 (stereo unspecified)	4	.	.	104
COc1cc(/C=C2\NC(=S)NC2=O)ccc1Oc1ccc([N+](=O)[O-])cc1[N+](=O)[O-]	-33	.	.	104
CCc1cc(-c2[nH]ncc2-c2nc(C)cs2)c(O)cc1OC(C)C(=O)NN (stereo unspecified)	-14	68	69	.
O=C(Cn1nc(-c2cccc(-n3cccc3)c2)oc1=O)N1CCCCC1	-5	97	89	100
O=C(CSc1nnc(CN2C(=O)c3cccc4cccc(c34)C2=O)n1-c1ccccc1)NCc1ccco1	-32	.	.	106
Cc1nc2ccc(S(=O)(=O)N(CC(=O)N3CCN(C)CC3)Cc3ccccc3)cc2s1	-29	98	82	97
Cn1nc(Cl)c2ccccc2c1=O	-18	.	.	106
O=C(/C=C\c1ccc2c(c1)OCO2)OCn1nnc2ccccc2c1=O	.	102	86	91
S=C1N2CCN=C2SC2=NCCN12	6	95	93	100
CCCCCn1c(CN2CCOCC2)nc2ccccc21	-2	.	.	102
Cc1cccc(C)c1NC(=O)C(c1ccccc1)N(C)C(=O)c1cnccn1 (stereo unspecified)	-4	83	86	103
FC(F)(F)c1nc(NCCc2ccccc2)nc2c1CCCCC2	.	90	87	102
Cc1cc(-c2ccc(S(=O)(=O)Nc3ccccc3)s2)on1	3	100	105	111
O=C(NC(=O)C(F)(F)F)Nc1nncs1	-29	90	75	.
O=C(Cn1cc(SCc2cccc(Cl)c2)c2ccccc21)N1CCCCC1	.	129	96	108

(more compounds)
SMILES	HCMV NEC inh	Sa growth inh	Sa growth inh second temp	GIV Gai3 FP
CC(=O)Nc1ccccc1OCC(=O)NCC(F)(F)F	-6	95	92	.
COC(=O)c1sccc1-c1ccc(C=Nc2ccc(Cl)cc2)o1	-11	107	103	106
CCCOC1(C(F)(F)F)NC(=O)N(Cc2ccccn2)C1=O (stereo unspecified)	18	101	101	111
CCOc1ccc(-n2c(=O)/c(=C\c3ccco3)s/c2=C(/C#N)C(=O)C(C)(C)C)cc1	-6	104	95	.
O=[N+]([O-])c1ccc(S(=O)(=O)N2CCn3cccc3C2c2ccc(Br)cc2)cc1 (stereo unspecified)	.	159	84	97
Cc1cc(C)cc(NC(=O)Cn2c(-c3cncs3)nc3ccccc32)c1	-29	107	86	106
O=C(CCS(=O)(=O)c1ccc(Br)s1)NC(c1ccccc1)c1ccccc1	.	109	74	105
Cc1cc(C(=O)Nc2cnn(Cc3ccc(F)cc3)c2)on1	-4	.	.	110

Quoted at random: 4 entries already listed.
SMILES	HCMV NEC inh	Sa growth inh	Sa growth inh second temp	GIV Gai3 FP
Cc1cc(C)cc(NC(=O)Cn2c(-c3cncs3)nc3ccccc32)c1	-29	107	86	106
CCCOC1(C(F)(F)F)NC(=O)N(Cc2ccccn2)C1=O (stereo unspecified)	18	101	101	111
Cc1cc(C(=O)Nc2cnn(Cc3ccc(F)cc3)c2)on1	-4	.	.	110
CC(=O)Nc1ccccc1OCC(=O)NCC(F)(F)F	-6	95	92	.
